# Source: PubChem BioAssay (several laboratories)
# BJeLR viability = BJeLR cell viability loss; hit rate 0.17% among 300,000; BJeLR (HRASV12) viability, CellTiter-Glo ATP luminescence, 48 h; reference of the scale not given here; inhibition, % (no concentration beside the values);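 active = replicate mean above 50%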;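 also: 50 nL library stock added to about 25 µL; numbers are from one replicate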
# RN4220 kill = S. aureus RN4220 growth inhibition. OD600, 16 h. inhibition, % (concentration not given with the values). hit rate 0.33% among 330,000;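 active = z-score of -3 or lower and OD600 up to 0.18 on both plates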;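 also: plate controls were untreated cells for no effect and reference antibiotic for full effect; stock transfer was 100 nL into about 80 µL; one replicate is shown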
# PrP UTR inh = suppresses PrP 5' UTR mRNA reporter expression | AID 488862 | hit rate 0.35% among 340,000 | cell-based PrP 5' UTR mRNA reporter, plate reader | inhibition, % (test concentration not listed);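 active = every replicate at 50% or more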;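 also: 0 = median of the neutral control wells; tested in H4 reporter cells; numbers are from one replicate; inactives centre near -14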
# Sa ugtP lethal = kills S. aureus RN4220 lacking UgtP; hit rate 0.54% among 330,000; S. aureus RN4220 ugtP deletion, OD600 growth, 16 h; some inactives read as strong as hits; AID 1259309; growth inhibition, % (no concentration beside the values);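 active = z-score under -3 and OD600 up to 0.15 on both plates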;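 also: plate controls were untreated wells for no effect and antibiotic for full effect; wells of about 80 µL received 100 nL stock; the first replicate is given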
# Autofluor counter = compound fluorescence in toxin protease inhibitor counterscreen; compound autofluorescence counterscreen, microsphere flow cytometry; stronger effect = higher value; fluorescence intensity (test concentration not listed); hit rate 3.1% among 360,000; AID 624483;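 active = at least 3 SD above the mean of all compounds, about 16000 in these data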;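 also: 100 nL of 1 mM stock went into each well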
# Mtb hypoxia rep = inhibitors of hypoxia-regulated fluorescent reporter in Mycobacterium tuberculosis. M. tuberculosis hypoxia-regulated fluorescent reporter, fluorescence. hit rate 0.1% among 300,000. fluorescence inhibition, % (test concentration not listed);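 active = 35 to 45% if threefold the growth effect, above 45% if 1.5-fold the growth effect; inactive = the rest, general growth blockers included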;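 also: wells of about 50 µL received 100 nL stock; 0% = vehicle wells and 100% = reference inhibitor wells; whole bacteria with a GFP reporter of the hypoxia response; strong numbers were not always called active; many hits fall short of the cut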
# Mtb hypoxia rep growth = also measured in Mtb hypoxia rep; calls as there; growth inhibition, %; measured here: M. tuberculosis growth (absorbance);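 0% = vehicle and 100% = reference antibiotic; read after six days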
# The depositor's hits bear a star; . = no result given.
SMILES,BJeLR viability,RN4220 kill,PrP UTR inh,Sa ugtP lethal,Autofluor counter,Mtb hypoxia rep,Mtb hypoxia rep growth
CCCC1CCC(=NNC(=O)OC(C)(C)C)CC1 (stereo not drawn),1,0.7,-26,10,2130,0,6
CCS(=O)(=O)C1=NSC2=NC(=O)/C(=C\c3cc(C)n(-c4cccc(OC)c4)c3C)C(=N)N21,-2,25,-9,4,2169,-1,-6
COc1ccc(-n2c(=S)[nH]c3cc(C(=O)NCCCN4CCCC4=O)ccc3c2=O)cc1OC,6,2.4,-10,-4,8136,1,1
CC(=O)c1nn(-c2cccc(C)c2)cc1C(=O)c1cccc(Br)c1,-8,1.4,-29,5,3832,17,1
CC(NC(=O)COc1ccccc1)C(=O)NCc1ccc(S(N)(=O)=O)cc1 (stereo not drawn),.,8.0,0,16,2881,7,5
COc1ccc(CCC(C)NCC2CCCCC2)cc1 (stereo not drawn),-2,0.1,-4,0,2061,5,2
COc1ccc(C2/C(=C(/O)c3ccc(Br)cc3)C(=O)C(=O)N2C)cc1OC (stereo not drawn),-8,4.7,-3,4,3443,-6,-13
CCc1ccc(NC(=O)C(=O)N/N=C(\C)CC(=O)Nc2ccc(OC)cc2)cc1,6,.,-33,.,3801,.,.
CCc1cccc(C)c1NC(=O)CSc1n[nH]c(N)n1,.,0.6,-19,3,3496,1,2
CC(=O)N(C(C)=O)c1ncc2c([nH]c3ccccc32)c1C#N,2,5.8,22,-2,12470,16,3
Cc1ccccc1-c1nnc(-c2ccccc2)o1,-6,10,-97,-6,2920,.,.
CCC1Oc2ccccc2N(CC(=O)NCCCN2CCCCC2CC)C1=O (stereo not drawn),-9,6.5,-17,-1,9015,6,4
COc1ccccc1C(=O)NNC(=O)c1sccc1-n1cccc1,3,9.5,-17,3,4446,5,14
CCCCC(O)(CCN1CCOCC1)c1ccc(Cl)cc1 (stereo not drawn),4,2.0,3,-5,21851*,14,12
COc1ccc(-c2nnn(CC(=O)N(CCCN3CCOCC3)C(C(=O)NC3CCCC3)c3ccc(C)o3)n2)cc1 (stereo not drawn),-3,5.4,-21,8,3214,12,-2
O=C(NCCc1ccccc1)C(c1cccs1)N(C(=O)c1csnn1)C1CC1 (stereo not drawn),-1,0.6,-17,-2,20245*,-2,6
O=C(O)/C=C/C(=O)NCCc1ccc(Cl)cc1,-11,1.4,-26,3,3919,-1,2
CC(=O)N1c2ccc(S(=O)(=O)N(C)CC(=O)NC3CCCC3)cc2CC1C (stereo not drawn),-5,4.6,-11,6,4711,3,5
CSc1nc2c(c(=O)n1-c1ccc(F)cc1)SCC2,-6,-0.8,-26,-7,5778,2,4
COc1ccc(-c2nc(/C=C3\C(C)=Nc4ccccc43)c(O)o2)cc1,-4,91*,-11,92*,3991,6,3
COc1ccc(OCc2cc(C(=O)N3CCCC(O)C3)no2)c2ccccc12 (stereo not drawn),4,4.5,-52,6,5213,2,-1
COc1ccc(C2CC(c3cccs3)Nc3nnnn32)cc1 (stereo not drawn),-1,2.5,-2,7,4516,-9,0
COCCn1c(SCC(=O)Nc2ccc3[nH]c(=O)[nH]c3c2)nc2ccccc2c1=O,6,1.9,-19,17,4201,4,7
O=C(COC(=O)c1ccc2ncsc2c1)Nc1ncc(Cl)cc1Cl,-4,.,-19,.,2342,.,.
Cc1cccc2c1CC(C)(C)N=C2C1=C(O)CCCC1=O,1,-1.6,-9,2,2710,.,.
O=C(c1cc([N+](=O)[O-])ccc1N1CCOCC1)N1CCN(S(=O)(=O)c2cc(Cl)ccc2Cl)CC1,-2,0.0,2,9,6030,4,3
COc1ccc2ccccc2c1C1CC(=O)N2CN(C)CSC2=C1C#N (stereo not drawn),3,8.8,-37,0,20088*,12,11
COc1ccc(CCN2CC(C(=O)NC3CCOCC3)CCC2=O)cc1 (stereo not drawn),7,4.8,-5,2,5066,5,5
CCc1cc(C(=O)OC)c(NC(=O)CC2SC(N)=NC2=O)s1 (stereo not drawn),1,4.2,-4,5,1932,15,5
O=C(COC(=O)CN1C(=O)c2ccccc2C1=O)Nc1ccc(S(=O)(=O)N2CCCC2)cc1,-3,-1.7,-16,7,3500,.,.
COc1ccc(NC(=O)Cc2ccsc2)c(OC)c1,3,5.4,-21,9,3811,2,4
CS(=O)(=O)c1ccc(C(=O)N2CCc3ccccc3C2)cc1,4,1.5,-16,13,3108,0,7
O=C(NCCc1c[nH]c2ccccc12)C(=O)Nc1cc2c3c(c1)CC(=O)N3CCC2,-2,4.3,-5,-6,5167,3,8
COc1cc(C=NNC(=O)c2ccc(CN3C(=O)c4cccc5cccc3c45)cc2)cc(OC)c1O,.,5.6,.,5,.,-2,10
CC(=O)c1ccc(N2Cc3ccccc3C2=NC(=O)Nc2ccccc2)cc1,.,0.7,.,2,.,7,9
Nc1nc2n(n1)C(c1cccc(Cl)c1)CC(c1ccc(F)cc1)N2 (stereo not drawn),2,9.3,-2,-1,6174,.,.
C=CCn1c(SC2CCOC2=O)nc2sc(C)c(C)c2c1=O (stereo not drawn),-2,5.0,-14,1,2619,15,11
COc1ccc(C2(C)NC(=O)N(CC(=O)NCC(=O)Nc3ccc(F)c(F)c3F)C2=O)cc1OC (stereo not drawn),.,5.5,-34,1,3480,13,9
COc1ccc(NS(=O)(=O)c2cc([N+](=O)[O-])ccc2N/N=C\c2c(C)[nH]c3ccccc23)cc1,-12,.,4,.,8114,.,.
O=C(O)C1CCC(N2C(=O)C3CCCCC3C2=O)CC1 (stereo not drawn),-14,7.1,-6,14,6208,12,0
Cc1cc(NC(=O)Nc2ccccc2F)ccc1Br,2,-6.6,-142,-33,1925,-1,6
COc1ccc(NC(=O)/C(N=Nc2cccc(S(=O)(=O)Nc3ccc(SC(F)F)cc3)c2)=C(\C)O)cc1,.,-11,-1,-12,3272,-9,-9
CCCCNC(=O)N1CCN(S(C)(=O)=O)CC1,0,3.4,-18,9,2291,8,-1
COc1ccc(-c2cc(C(=O)O)c3ccccc3n2)c(OC)c1,1,1.7,-24,0,4232,.,.
O=C(c1cnc2n(c1=O)CCS2)N1CCN(c2ccc([N+](=O)[O-])cc2)CC1,-1,-9.8,-20,1,5885,6,13
CCC1(c2ccc(F)cc2)NC(=O)N(CC(=O)Nc2cccnc2Cl)C1=O (stereo not drawn),6,-1.3,-4,-4,5819,0,-1
COC(=O)c1ccccc1NC(=O)CN1CCC(n2nnc3cc(F)ccc32)CC1,3,-4.8,-1,-10,8016,-8,7
Cc1nc2ccccn2c1C(=O)NN=Cc1ccccc1Cl,.,9.5,.,4,.,13,12
O=C(Nc1ccc2[nH]c(=O)[nH]c2c1)c1cc(F)c(F)cc1Cl,-14,-0.2,-11,12,4229,1,2
Cc1nnc(NC(=O)CSc2nc(C(C)C)nc3ccccc23)s1,8,2.1,-16,0,7607,5,4

# 3 entries from above, with values under each structure.
# Below each compound: BJeLR viability	RN4220 kill	PrP UTR inh	Sa ugtP lethal	Autofluor counter	Mtb hypoxia rep	Mtb hypoxia rep growth
> COC(=O)c1ccccc1NC(=O)CN1CCC(n2nnc3cc(F)ccc32)CC1
  3	-4.8	-1	-10	8016	-8	7
> Cc1nc2ccccn2c1C(=O)NN=Cc1ccccc1Cl
  .	9.5	.	4	.	13	12
> O=C(Nc1ccc2[nH]c(=O)[nH]c2c1)c1cc(F)c(F)cc1Cl
  -14	-0.2	-11	12	4229	1	2

# (cont.)
SMILES,BJeLR viability,RN4220 kill,PrP UTR inh,Sa ugtP lethal,Autofluor counter,Mtb hypoxia rep,Mtb hypoxia rep growth
CC(=O)OCC1=C(C(=O)O)N2C(=O)C(NC(=O)CCn3nc(C(F)(F)F)c(Br)c3C3CC3)C2SC1 (stereo not drawn),-6,100*,-30,100*,4389,.,.
Cc1n[nH]c(=O)nc1NCc1ccco1,1,2.2,-15,-8,2493,6,14
COc1ccc(-c2cc(=O)n(-c3nc4ccccc4[nH]3)[nH]2)cc1,4,42,-26,-14,23993*,9,-4
O=C1CCCC/C1=C/Nc1ccc(C(=O)O)cc1,-3,4.0,.,15,8291,8,4
O=c1c2[nH]c3ccc(F)cc3c2ncn1CCN1CCOCC1,-6,5.5,-25,-5,2354,.,.
CCOc1cc(/C=C/C(=O)OCC(=O)NCC2CCCO2)cc(Cl)c1OC (stereo not drawn),.,5.3,-13,0,2882,-13,2
COc1ccc(OC)c(/C=C2\Oc3cc(OCC(=O)N4CCC(C(=O)O)CC4)ccc3C2=O)c1,6,4.4,7,-13,5175,.,.
CCCOc1ccc(CNC(=O)c2ccc3c(c2)N(CC)CCS3)cc1,2,-19,-16,1,5831,9,3
O=c1[nH]c(=S)[nH]c2c1CN(Cc1ccc(F)cc1)CC2,0,-6.6,2,-13,4003,4,10
Cc1c(OCC(=O)N2CCC(C(=O)O)CC2)ccc2c1oc(=O)c1ccccc12,1,4.2,-19,14,4911,.,.

# A draw from above in order of formula weight, lowest first:
SMILES,BJeLR viability,RN4220 kill,PrP UTR inh,Sa ugtP lethal,Autofluor counter,Mtb hypoxia rep,Mtb hypoxia rep growth
O=c1[nH]c(=S)[nH]c2c1CN(Cc1ccc(F)cc1)CC2,0,-6.6,2,-13,4003,4,10
CCOc1cc(/C=C/C(=O)OCC(=O)NCC2CCCO2)cc(Cl)c1OC (stereo not drawn),.,5.3,-13,0,2882,-13,2
CC(=O)OCC1=C(C(=O)O)N2C(=O)C(NC(=O)CCn3nc(C(F)(F)F)c(Br)c3C3CC3)C2SC1 (stereo not drawn),-6,100*,-30,100*,4389,.,.

# Continuation.
SMILES,BJeLR viability,RN4220 kill,PrP UTR inh,Sa ugtP lethal,Autofluor counter,Mtb hypoxia rep,Mtb hypoxia rep growth
CC(NC(=O)c1ccc2c(c1)OCO2)C(c1cccs1)N1CCOCC1 (stereo not drawn),-4,4.0,-20,4,9971,13,15
Cc1cc(C)n2nc(SCC(=O)NC(=O)c3ccc(OC(F)F)cc3)nc2n1,.,1.8,-6,1,3772,3,14
O=C1CC(c2ccccc2)CC(O)=C1C=NCc1ccco1 (stereo not drawn),3,0.3,-19,-4,5932,2,12
CC(=O)Nc1cccc(-c2csc(N)n2)c1,4,.,-5,.,3282,.,.
COc1cccc(-c2c(-c3cc(OC)cc(OC)c3)n(C)c3ccc(-c4cccc5[nH]ccc45)cc23)c1,.,-0.3,-30,-2,3528,8,9
COc1ccc(CN2C(=O)CCC2(C)C(=O)NC2CCCCCC2)cc1 (stereo not drawn),-1,2.5,-17,-2,23241*,6,9
Cc1sc(NC(=O)c2ccc(=O)n(C)n2)nc1-c1ccccc1,7,14,-28,-12,4686,-4,4
CCC(c1nnnn1Cc1cccs1)N1CCN(C2CCCC2)CC1 (stereo not drawn),2,-1.4,-2,3,4993,.,.
COc1ccc(NC(=O)c2cccc(N3C(=O)c4ccc(C(=O)Nc5ccc(OC)c(O)c5)cc4C3=O)c2)cc1O,-6,0.0,2,7,5815,2,-4
CCCCNC(=S)NC(=O)c1ccc([N+](=O)[O-])cc1,-2,-3.4,-13,4,2601,.,.
CCCc1nnc(NC(=O)CCC(=O)NCCc2ccc(Cl)cc2)s1,0,1.6,-15,5,4498,13,1
COc1ccc(/C=C2\SC(=S)N(CC(=O)NCCO)C2=O)cc1,-5,6.6,-6,0,4616,3,-4
CC(C)NC(=O)N(C)CC1Oc2ccc(NC(=O)C3CC3)cc2C(=O)N(C(C)CO)CC1C (stereo not drawn),.,-0.4,.,2,.,1,2
Cc1[nH]c2ccccc2c1/C=N/O,-7,.,-34,.,5789,.,.
Cn1c(=O)c2c(ncn2CCC(=O)N/N=C/c2cccnc2)n(C)c1=O,9,.,-11,.,3493,.,.
Cc1[nH]c2ccccc2c1C(=O)C(=O)NCc1ccncc1,-14,.,-32,.,3954,.,.
COc1ccc(NC(=O)c2cc(S(=O)(=O)N3CCCCC3)ccc2N2CCCCC2)cn1,-4,3.1,1,1,23676*,-4,9
CCCCCCCC[n+]1cccc2c3ccccc3ccc21,34,100*,8,101*,4642,8,2
COc1ccccc1COCC(O)CNCC1(N2CCCCC2)CCCCC1 (stereo not drawn),-19,3.5,-35,-6,22309*,9,4
Cc1cc2c(nn1)CCC/C2=N\O,-6,.,-32,.,2316,.,.
CN(CCCOc1ccccc1Br)Cc1ccccc1,27,0.5,34,-3,4331,0,-8
CCOc1ccc(NC(=O)Nc2ccc(Cc3ccncc3)cc2)cc1,4,6.4,9,18,4743,-6,7
CCOC(=O)c1cc2c(ccn2C)n1CC(=O)N1C(C)CCCC1C (stereo not drawn),0,-0.9,-13,6,3421,8,10
COc1ccc(-n2c(/C=C/c3ccc(O)cc3)nc3ccccc3c2=O)cc1,-11,-9.6,3,18,.,11,7
CCOC(=O)C(/C=C(\C#N)C(=O)OCC)=C(/N)N1CCN(c2ccccc2)CC1,13,.,-30,.,3206,.,.
